PrP UTR inh = inhibition of PrP 5' UTR reporter expression | cell-based PrP 5' UTR mRNA reporter, plate reader | inhibition, % (no concentration beside the values) | hit rate 0.35% among 340,000;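 active = every replicate at 50% or more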;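 also: 0 = median of the neutral control wells; tested in H4 reporter cells; numbers are from one replicate; inactives centre near -14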
ugtP null kill = growth inhibition of ugtP-null S. aureus, primary screen, RN4220 ugtP deletion, OD600 | 16 h; some inactives read as strong as hits | growth inhibition, % (concentration not given with the values) | hit rate 0.54% among 330,000;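 active = z-score under -3 and OD600 up to 0.15 on both plates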;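 also: plate controls were untreated wells for no effect and antibiotic for full effect; wells of about 80 µL received 100 nL stock; the first replicate is given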
Bead autofluor = compound fluorescence in toxin protease inhibitor counterscreen | compound autofluorescence counterscreen, microsphere flow cytometry; active compounds read high | fluorescence intensity (test concentration not listed) | hit rate 3.1% among 360,000 | AID 624483;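 active = at least 3 SD above the mean of all compounds, about 16000 in these data; inconclusive = too few beads counted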;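 also: 100 nL of 1 mM stock went into each well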
RN4220 kill = growth inhibition of S. aureus RN4220, primary screen, OD600; hit rate 0.33% among 330,000; AID 1259311, 2017; 16 h; inhibition, % (no concentration beside the values);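 active = z-score of -3 or lower and OD600 up to 0.18 on both plates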;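 also: plate controls were untreated cells for no effect and reference antibiotic for full effect; stock transfer was 100 nL into about 80 µL; one replicate is shown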
Mtb hypoxia inh = PubChem AID 1159583; M. tuberculosis hypoxia-regulated fluorescent reporter, fluorescence; fluorescence inhibition, % (concentration not given with the values); hit rate 0.1% among 300,000;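 active = 35 to 45% if threefold the growth effect, above 45% if 1.5-fold the growth effect; inactive = the rest, general growth blockers included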;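 also: wells of about 50 µL received 100 nL stock; 0% = vehicle wells and 100% = reference inhibitor wells; whole bacteria with a GFP reporter of the hypoxia response; strong numbers were not always called active; many hits fall short of the cut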
BJeLR viability = MLPCN primary cell-based screen for lethality selective to Ras in HRASV12 cells; BJeLR (HRASV12) viability, CellTiter-Glo ATP luminescence, 48 h; reference of the scale not given here; inhibition, % (no concentration beside the values); AID 1554, 2009; hit rate 0.17% among 300,000;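 active = replicate mean above 50%; inconclusive = above 50% but judged a plate artefact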;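 also: 50 nL library stock added to about 25 µL; numbers are from one replicate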
Mtb hypoxia inh growth = second read-out of Mtb hypoxia inh, no call of its own (marks repeat the call); growth inhibition, %; measured here: M. tuberculosis growth (absorbance);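 0% = vehicle and 100% = reference antibiotic; read after six days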
* marks the source's active call; other numbers are inactive results; ? = inconclusive; . = no result given; & = joins results of further samples.

[1] COc1cccc(NC(=O)COC(=O)CCCC2=NS(=O)(=O)c3ccccc3N2)c1
[2] Cc1ccc2nc(SCC(=O)Nc3ccc(C)c(Cl)c3)nc(=O)n2c1
[3] CCN(CC)c1ccc(NC(=O)CN2CCN(c3ccccn3)CC2)cc1
[4] CCCC(c1nnnn1Cc1ccc(OC)cc1)N1CCN(c2ccccc2OC)CC1 (configuration not stated)
[5] O=C(O)CCNC(=O)c1ccc(Br)o1
[6] CC=CC1=CC(=O)CC(c2ccc(Cl)cc2)C1 (configuration not stated)

screen / no.	1	2	3	4	5	6
PrP UTR inh	-4	-24	.	-10	-23	.
ugtP null kill	7	4	11	-2	-1	3
Bead autofluor	6079	6133	3560	2647	4263	.
RN4220 kill	1.3	1.2	2.2	-0.8	0.5	2.9
Mtb hypoxia inh	1	5	-4	.	.	5
Mtb hypoxia inh growth	1	-2	-7	.	.	10
BJeLR viability	-12	-9	-2	-8	7	.

Entries of single compounds, quoted from the list. Order of values: PrP UTR inh | ugtP null kill | Bead autofluor | RN4220 kill | Mtb hypoxia inh | Mtb hypoxia inh growth | BJeLR viability
`Cc1ccc2nc(SCC(=O)Nc3ccc(C)c(Cl)c3)nc(=O)n2c1` across the screens: -24 | 4 | 6133 | 1.2 | 5 | -2 | -9
`O=C(O)CCNC(=O)c1ccc(Br)o1` across the screens: -23 | -1 | 4263 | 0.5 | . | . | 7

Next section
[7] CCN(Cc1ccncc1)C(=O)CCc1nnc(CCc2ccc(OC)cc2)o1
[8] COc1cc(/C=N/n2c(C)nc3ccccc3c2=O)ccc1O
[9] COc1ccc(CC(=O)N2CCCC(CNC(=O)c3ccccc3Cl)C2)cc1 (configuration not stated)
[10] COc1ccc2[nH]c(=O)c(CN(C)C(=O)c3ccncc3)cc2c1
[11] CCN(CC(=O)NCc1ccccn1)S(=O)(=O)c1cc(Cl)ccc1Cl
[12] Cc1nn(C)c(Cl)c1C(N)=O

screen / no.	7	8	9	10	11	12
PrP UTR inh	-13	-1	-20	-8	-1	-22
ugtP null kill	8	.	4	-1	3	4
Bead autofluor	1897	3827	2170	20262*	6995	4676
RN4220 kill	1.3	.	5.8	2.0	1.6	6.2
Mtb hypoxia inh	-3	.	2	3	-8	8
Mtb hypoxia inh growth	-1	.	2	-2	3	3
BJeLR viability	-4	-8	10	4	-1	2

[13] O=C(CNC(=O)c1ccco1)NCC(=O)OCc1ccc(F)cc1
[14] Cc1ccccc1N(CC(=O)NC1CCCC1)C(=O)CS(=O)CC(=O)Nc1ccc2c(c1)OCO2 (configuration not stated)
[15] O=C(CCN1CCN(C(c2ccccc2)c2ccccc2)CC1)N/N=C/c1ccc(O)cc1O
[16] Cc1nc2ccc(N3CCN(C)CC3)cc2nc1C
[17] CCCn1c(SCC(=O)N2CCN(c3ccc(OC)cc3)CC2)nc2c1c(=O)n(C)c(=O)n2C
[18] CC(=O)c1ccc(OC(=O)C2c3ccccc3Oc3ccccc32)cc1

screen / no.	13	14	15	16	17	18
PrP UTR inh	-20	-16	-11	38	-1	-21
ugtP null kill	8	1	.	3	3	7
Bead autofluor	3581	20092*	2616	3252	19577*	4145
RN4220 kill	2.0	5.6	.	2.7	-1.0	1.0
Mtb hypoxia inh	6	-2	.	8	4	.
Mtb hypoxia inh growth	4	1	.	5	12	.
BJeLR viability	14	3	-4	3	7	-6

[19] CC(C)(C)C1C=C(C(=O)N2CCN(Cc3ccccc3)CC2)OC(OCCCCO)C1 (configuration not stated)
[20] O=S(Cc1cc(Sc2ccccc2)nc(-c2ccccc2)n1)c1ccccc1 (configuration not stated)
[21] CC1SC(c2ccc(F)cc2)NC1=O (configuration not stated)
[22] CCn1c(SCc2nc(-c3ccc(OC)c(OC)c3)no2)nnc1-c1cccs1
[23] Cc1ccc(C)c(CN2C(=O)CSc3ccc(C(=O)N4CCCC4)cc32)c1
[24] COc1ccccc1NC(=O)C(=O)N/N=C/c1ccc([N+](=O)[O-])s1

screen / no.	19	20	21	22	23	24
PrP UTR inh	.	15	-15	-7	-14	-9
ugtP null kill	2&-6	6	5	3	-4	.
Bead autofluor	.	2979	2072	4242	5562	2051
RN4220 kill	8.6&1.2	-1.1	4.2	7.7	2.4	.
Mtb hypoxia inh	13&7	.	5	5	0	.
Mtb hypoxia inh growth	7&16	.	9	10	-1	.
BJeLR viability	.	4	-8	-2	2	-1

Compounds 4 through 18, reprinted for reference:
[4] CCCC(c1nnnn1Cc1ccc(OC)cc1)N1CCN(c2ccccc2OC)CC1 (configuration not stated)
[5] O=C(O)CCNC(=O)c1ccc(Br)o1
[6] CC=CC1=CC(=O)CC(c2ccc(Cl)cc2)C1 (configuration not stated)
[7] CCN(Cc1ccncc1)C(=O)CCc1nnc(CCc2ccc(OC)cc2)o1
[8] COc1cc(/C=N/n2c(C)nc3ccccc3c2=O)ccc1O
[9] COc1ccc(CC(=O)N2CCCC(CNC(=O)c3ccccc3Cl)C2)cc1 (configuration not stated)
[10] COc1ccc2[nH]c(=O)c(CN(C)C(=O)c3ccncc3)cc2c1
[11] CCN(CC(=O)NCc1ccccn1)S(=O)(=O)c1cc(Cl)ccc1Cl

screen / no.	4	5	6	7	8	9	10	11
PrP UTR inh	-10	-23	.	-13	-1	-20	-8	-1
ugtP null kill	-2	-1	3	8	.	4	-1	3
Bead autofluor	2647	4263	.	1897	3827	2170	20262*	6995
RN4220 kill	-0.8	0.5	2.9	1.3	.	5.8	2.0	1.6
Mtb hypoxia inh	.	.	5	-3	.	2	3	-8
Mtb hypoxia inh growth	.	.	10	-1	.	2	-2	3
BJeLR viability	-8	7	.	-4	-8	10	4	-1

[12] Cc1nn(C)c(Cl)c1C(N)=O
[13] O=C(CNC(=O)c1ccco1)NCC(=O)OCc1ccc(F)cc1
[14] Cc1ccccc1N(CC(=O)NC1CCCC1)C(=O)CS(=O)CC(=O)Nc1ccc2c(c1)OCO2 (configuration not stated)
[15] O=C(CCN1CCN(C(c2ccccc2)c2ccccc2)CC1)N/N=C/c1ccc(O)cc1O
[16] Cc1nc2ccc(N3CCN(C)CC3)cc2nc1C
[17] CCCn1c(SCC(=O)N2CCN(c3ccc(OC)cc3)CC2)nc2c1c(=O)n(C)c(=O)n2C
[18] CC(=O)c1ccc(OC(=O)C2c3ccccc3Oc3ccccc32)cc1

screen / no.	12	13	14	15	16	17	18
PrP UTR inh	-22	-20	-16	-11	38	-1	-21
ugtP null kill	4	8	1	.	3	3	7
Bead autofluor	4676	3581	20092*	2616	3252	19577*	4145
RN4220 kill	6.2	2.0	5.6	.	2.7	-1.0	1.0
Mtb hypoxia inh	8	6	-2	.	8	4	.
Mtb hypoxia inh growth	3	4	1	.	5	12	.
BJeLR viability	2	14	3	-4	3	7	-6

(list continues)
[25] CSc1ccc(C=NNC(=O)COc2ccc(Cl)cc2Br)cc1
[26] CCC1CCC2(CC1)NC(=O)N(CC(=O)Nc1cccc(S(=O)(=O)N(C)c3ccccc3)c1)C2=O (configuration not stated)
[27] Cc1nnsc1C(=O)Nc1cccc(Cl)c1Cl
[28] COc1ccccc1CN1C(=O)CCC1(C)C(=O)NCc1cccnc1 (configuration not stated)
[29] CN1CCN(C(=O)c2c(O)c3cccc4c3n(c2=O)CC4)CC1
[30] COc1ccc(S(=O)(=O)Nc2ccc3c(c2)C(=O)N([C@H](C)CO)C[C@@H](C)[C@@H](CN(C)S(=O)(=O)c2ccc(Cl)cc2)O3)cc1

screen / no.	25	26	27	28	29	30
PrP UTR inh	.	-2	-21	-23	4	-7
ugtP null kill	-6	-2	-4	-2	8	-10
Bead autofluor	.	3821	9841	9504	?	4071
RN4220 kill	0.5	0.6	3.1	8.1	6.9	-13
Mtb hypoxia inh	14	-5	0	6	19	-1
Mtb hypoxia inh growth	4	4	6	5	3	9
BJeLR viability	.	.	-6	-6	1	.

[31] C#CCNC(=O)C1=C[C@@H](C2CCCCC2)C[C@@H](OCc2ccc(CO)cc2)O1
[32] Cc1sc2ncn(CC(=O)N3CCN(c4ccccc4)CC3)c(=O)c2c1S(=O)(=O)N1CCOCC1
[33] CC(C)CNC(=O)CC1Nc2ccccc2NC1=O (configuration not stated)
[34] CCC(C(=O)O)n1nc(-c2ccccc2)c2cc(Cl)ccc21 (configuration not stated)
[35] COc1ccccc1NC(=O)c1csc(-n2nc(C)cc2C(F)(F)F)n1
[36] COc1ccc(CN(C)CC2CCCN(CCc3ccc(F)cc3)C2)cc1OC (configuration not stated)

screen / no.	31	32	33	34	35	36
PrP UTR inh	-28	-8	-19	-13	3	0
ugtP null kill	.	7	8	12	-1	12
Bead autofluor	3682	5063	4639	4415	21807*	4225
RN4220 kill	.	3.2	16	17	1.5	5.4
Mtb hypoxia inh	.	-6	-4	13	3	9
Mtb hypoxia inh growth	.	9	2	8	16	11
BJeLR viability	4	-3	-8	-7	3	8

[37] Cc1nc2ccc3[nH]snc3c2n1
[38] Cc1[nH]c2ccccc2c1CCNC(=O)CCC(=O)c1ccccc1
[39] O=C(OCC1CCCN2CCCCC12)c1ccc2c(c1)OCO2 (configuration not stated)
[40] O=C(CCn1nc(-c2ccccc2)ccc1=O)NCCCN1CCCCCC1
[41] Cc1cccc(C(=O)NC(C(=O)Nc2nc(-c3ccccn3)cs2)C(C)C)c1 (configuration not stated)
[42] CC(=O)c1ccc(NC(=S)N2CCCCCC2)cc1

screen / no.	37	38	39	40	41	42
PrP UTR inh	-2	-9	-9	-21	-7	-8
ugtP null kill	-7	2	38	11	6	2
Bead autofluor	23032*	4223	4551	2657	4494	4967
RN4220 kill	-1.2	5.7	3.2	6.8	4.0	1.8
Mtb hypoxia inh	-5	5	6	2	-6	7
Mtb hypoxia inh growth	5	14	-1	7	5	2
BJeLR viability	.	-6	1	6	14	-4

[43] O=C(CCCCC(=O)Nc1ccccc1Cl)Nc1ccccc1Cl
[44] CC(C)(C)N1CC2([N+](=O)[O-])CN(C(C)(C)C)CC([N+](=O)[O-])(C1)C2
[45] O=C(COc1ccc(-n2cnnn2)cc1)NCCc1ccc(F)cc1
[46] CCCCC(=O)O[C@]1(C(=O)CO)CCC2C3CCC4=CC(=O)CC[C@]4(C)C3C(O)C[C@@]21C (some centres not stated)
[47] O=C(OCc1ccccc1Cl)C1CC(=O)N(Cc2ccco2)C1 (configuration not stated)
[48] Cc1csc(=O)n1CC(=O)OCC(=O)NNC(=O)c1ccccc1

screen / no.	43	44	45	46	47	48
PrP UTR inh	-6	-29	-12	.	5	-6
ugtP null kill	-7	0	4	5	-1	3
Bead autofluor	3074	2463	4523	.	5400	5537
RN4220 kill	1.1	3.5	0.6	13	-1.9	4.0
Mtb hypoxia inh	-6	.	.	-2	0	1
Mtb hypoxia inh growth	-1	.	.	7	-3	5
BJeLR viability	0	1	-3	.	5	-8

[49] CC(C)c1ccccc1OCC(=O)N(C)CC(=O)Nc1ccc(F)cc1
[50] Cc1cccc(Cc2nnc(CCC(=O)N(CC3CC3)CC3CCCO3)o2)c1 (configuration not stated)
[51] CCCCN(C(=O)c1cc(CN2C(=O)c3ccccc3C2=O)ccc1OC)c1c(N)n(CC(C)C)c(=O)[nH]c1=O
[52] Cc1cc(/C=C(\C#N)C(=O)NCc2ccco2)c(C)n1-c1cccnc1
[53] Cc1cccc2c1N(C(=O)c1ccco1)C(C)(C)c1ssc(=S)c1-2
[54] CC(Cc1ccccc1)N1Cc2ccccc2C1 (configuration not stated)
[55] O=C(CN(c1ccccc1)S(=O)(=O)c1ccccc1)N1CCOCC1
[56] Cn1c(-c2ccccc2)cnc1SCC(=O)N1CCCc2ccccc21

screen / no.	49	50	51	52	53	54	55	56
PrP UTR inh	0	-75	-13	-14	-14	-20	-29	-1
ugtP null kill	-5	5	1	6	8	6	-2	7
Bead autofluor	.	2684	3989	5477	3533	3795	4144	2041
RN4220 kill	-1.0	3.1	4.1	1.7	6.1	0.7	3.9	6.0
Mtb hypoxia inh	-3	-6	4	10	.	4	13	5
Mtb hypoxia inh growth	4	1	-4	2	.	9	5	8
BJeLR viability	-7	3	.	-7	2	1	5	3

Bioassay records as filed in PubChem BioAssay.
